# KCNQ2 inh: KCNQ2 potassium channel inhibitors, primary screen, cell-based, CHO-K1, FluxOR thallium flux, B-score (AID 2156) | Potassium voltage-gated channel subfamily KQT member 2 (Rattus norvegicus), O88943 | 20 min; stronger effect = lower value; only compounds with negative scores are shown here; some inactives read as strong as hits | B-score at 10 µM | 310,000 tested, 1.1% active;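 active = fluorescence ratio B-score at most minus 3 library SDs, with starting brightness B-score within 2 library SDs, cut at about -5.5 in these data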
# Target sequence (O88943 whole entry, looked up): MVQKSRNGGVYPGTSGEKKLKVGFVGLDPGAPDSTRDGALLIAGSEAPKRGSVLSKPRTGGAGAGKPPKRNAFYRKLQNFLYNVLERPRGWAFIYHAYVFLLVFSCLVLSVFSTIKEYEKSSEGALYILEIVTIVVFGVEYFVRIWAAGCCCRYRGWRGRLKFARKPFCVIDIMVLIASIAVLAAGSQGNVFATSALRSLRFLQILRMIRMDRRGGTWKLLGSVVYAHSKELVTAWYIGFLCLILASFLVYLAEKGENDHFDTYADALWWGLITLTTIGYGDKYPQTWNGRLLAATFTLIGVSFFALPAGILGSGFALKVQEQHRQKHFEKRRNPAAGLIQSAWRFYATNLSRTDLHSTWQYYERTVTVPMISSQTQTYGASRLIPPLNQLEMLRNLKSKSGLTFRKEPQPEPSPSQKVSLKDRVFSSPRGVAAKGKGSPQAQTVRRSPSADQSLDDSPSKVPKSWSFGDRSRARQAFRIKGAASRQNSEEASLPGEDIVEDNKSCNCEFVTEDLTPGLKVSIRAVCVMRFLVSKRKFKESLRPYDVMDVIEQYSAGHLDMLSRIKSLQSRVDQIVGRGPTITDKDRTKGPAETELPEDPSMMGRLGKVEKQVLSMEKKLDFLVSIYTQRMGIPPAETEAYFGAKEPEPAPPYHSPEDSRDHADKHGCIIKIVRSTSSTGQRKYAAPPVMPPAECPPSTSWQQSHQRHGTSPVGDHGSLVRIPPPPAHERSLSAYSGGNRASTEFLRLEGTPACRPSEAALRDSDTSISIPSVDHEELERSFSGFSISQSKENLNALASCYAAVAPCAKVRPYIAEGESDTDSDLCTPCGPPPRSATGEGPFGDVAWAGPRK
# KCNQ2 inh baseline: further read-out of KCNQ2 inh, marked with its call; B-score; measured here: initial fluorescence intensity artifact check;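 brightness before thallium and not channel activity; 0 = typical well and far values either way flag optical interference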
# Active calls of the source: *; i = inactive.
no.	SMILES	KCNQ2 inh	KCNQ2 inh baseline
1	COc1ccc(CN(C)Cc2cc(=O)oc3cc(C)c(C(C)C)cc23)cc1OC	i	-0.23
2	COCCCNC(=O)CCNS(=O)(=O)c1ccc(C)cc1	i	-0.47
3	COc1ccc(S(=O)(=O)N2CCCCCC2)cc1C(=O)OCC(=O)NC(N)=O	i	0.11
4	COc1ccc(CC(C)N2CCN(Cc3ccccc3)CC2)cc1OC (stereo not given)	i	0.06
5	COc1ccc2cc(C(=O)c3ccccc3)c(=O)oc2c1	i	1.1
6	CCn1c(=O)c(C(=O)NC(C)C)c(O)c2ccccc21	i	-0.29
7	Cc1cc(C)n2c(Nc3ccc4c(c3)OCCO4)c(-c3ccccc3)nc2n1	i	-0.06
8	CCCc1cc(=O)oc2c3c(cc(OCC(=O)NCc4ccncc4)c12)OC(C)(C)CC3	i	-0.06
9	Nc1ccc(S(=O)(=O)NC2(C(F)(F)F)NC(=O)N(c3ccc(F)cc3)C2=O)cc1 (stereo not given)	i	-0.17
10	Cc1c(Cl)cccc1NC(=S)N(Cc1ccco1)C(C)c1ccccn1 (stereo not given)	i	-0.15
11	CCOc1cc(C(=S)N2CCCC2)ccc1OCc1ccccc1	i	0.04
12	COc1ccc(C(CNC(=O)c2cccc(NS(=O)(=O)c3ccc(C)c(F)c3)c2)N2CCOCC2)cc1 (stereo not given)	i	-0.78
13	COc1cccc(Cn2c(=O)oc3ccccc32)c1	i	-0.61
14	CSCCC(NC(=O)c1cc(C)oc1C)C(=O)O (stereo not given)	i	0.33
15	COc1ccc(OC)c(-c2nnc(NC(=O)C(C)Sc3nncn3C)s2)c1 (stereo not given)	i	-1.3
16	O=C(c1cccc(N2C(=O)C3CC=CCC3C2=O)c1)N1CCCCCC1 (stereo not given)	i	0.32
17	Cc1ccc(NC(=O)c2sccc2C)cc1S(=O)(=O)N(C)C	i	1.6
18	O=C(O)C1[C@H]2C(=O)N(Cc3cccs3)C[C@]23C=C[C@H]1O3 (stereo not given in full)	i	-0.36
19	CCOC(=O)Cn1c(=O)oc2cc(S(=O)(=O)N(C)Cc3ccccc3)ccc21	i	-1.1
20	CC(=O)N1CCCc2cc(S(=O)(=O)N3CCCC(C)C3)ccc21 (stereo not given)	i	-0.51
21	CCCNC(=O)CCC(=O)Nc1ncc(-c2ccc(C)cc2)n1C	i	-1.1
22	CCC(C)(C)NC(=O)C(c1ccccc1)N(C(=O)c1csnn1)C1CC1 (stereo not given)	i	-0.61
23	Nc1c(C(=O)Nc2nccs2)sc2nc(-c3cccs3)cc(C(F)(F)F)c12	i	1.8
24	Cc1ccc(NC(NC(=O)c2cccs2)C(Cl)(Cl)Cl)cc1 (stereo not given)	i	-1
25	C=C(c1ccccc1)c1ccccc1N	i	0.46
26	COc1ccc2nc(NC(=O)c3ccccc3F)sc2c1	i	-0.31
27	CCCCn1c(N)c(N(CCOC)C(=O)CCNC(=O)c2ccc(Br)cc2)c(=O)[nH]c1=O	i	-0.88
28	O=C(CNC(=O)c1ccccc1)NCc1nc2ccccc2[nH]1	i	0.83
29	COc1ccc(OC)c(-c2cc(C(=O)N/N=C/c3ccc(F)cc3)c3ccccc3n2)c1	i	0.04
30	CN(C)c1ccc(/C=C2\CCC/C(=C\c3ccccc3)C2=O)cc1	i	-1.4
31	c1ccc2[nH]c(-c3ccncc3)nc2c1	i	1.2
32	CCCCN1C(=O)C(O)(CC(=O)c2c(C)coc2C)c2ccccc21 (stereo not given)	i	0.63
33	Cc1ccc(C(=O)Nc2ccc(OCc3ccccc3)cc2)s1	i	-0.07
34	CCOc1cc(C(=S)N2CCCC2)ccc1OC(=O)Cc1ccc(F)cc1	i	-1.1
35	Cc1ccc([C@@H]2[C@@H]3C(=O)N(C)C(=O)[C@@H]3[C@]3(C)C(=O)N(CC4CC4)CC(=O)N23)o1	i	-0.2
36	CC(C)C[C@H](NC(=O)c1[nH]cnc1C(=O)N[C@@H](Cc1ccccc1)C(=O)OC(C)(C)C)C(=O)OC(C)(C)C	i	-0.68
37	COc1cccc(C(O)CC(N)=O)c1 (stereo not given)	i	0.09
38	CCOc1ccc(C(=O)C(C)OC(=O)Cn2cnc3c2c(=O)n(C)c(=O)n3C)cc1 (stereo not given)	i	1.6
39	Cc1ccc(C2=NN(C(=O)CNCCO)C(c3cccs3)C2)cc1 (stereo not given)	i	-1.8
40	COc1ccc(C(=O)NNC(=O)Cc2ccc(-c3ccccc3)cc2)cc1OC	i	-0.03
41	O=C(NC(=S)Nc1cc(S(=O)(=O)N2CCOCC2)ccc1O)c1ccco1	i	1.4
42	Cc1nc(C)c(-c2csc(Nc3ccc(O)c(C(=O)O)c3)n2)s1	i	-0.15
43	O=C1CNC(=O)/C(=C\c2ccccc2)N1	i	-1.2
44	CC(=O)Nc1nonc1-c1nc2ccccc2n1C	i	3.1
45	CCCCOC(=O)C1CN(c2ccccc2)N=C1C(=O)OCC (stereo not given)	i	0.51
46	O=c1c2ccccc2nc(SCCN2CCOCC2)n1CCc1ccccc1	i	0.37
47	Cc1c(N2C(=O)C3C4C=CC(C4)C3C2=O)c(=O)n(-c2ccccc2)n1C (stereo not given)	i	-0.25
48	O=C(NCCC(=O)N1CCC2(CC1)NCCc1[nH]cnc12)c1ccc(F)c(F)c1	i	1.1
49	CCN1C(=O)c2ccccc2S(=O)c2ccc(C(=O)NC3CC3)cc21 (stereo not given)	i	-0.27
50	CCC(C)(C)n1nnnc1C(c1cccnc1)N1CCCc2ccccc21 (stereo not given)	i	0.08
51	O=C(CCc1c[nH]c2ccccc12)OCc1cccc([N+](=O)[O-])c1	i	-0.61
52	CNc1ccc(/C=C2\CSc3ccccc3C2=O)cc1[N+](=O)[O-]	i	2.2
53	NNC(=O)c1cc(Br)cs1	i	0.39
54	O=C(NCc1ccco1)C1CCCN(S(=O)(=O)c2cccc3nsnc23)C1 (stereo not given)	i	-0.91
55	CCCCCCCCn1ccc(=N)cc1	i	2.2
56	COc1ccccc1OCCNC(=O)C(CCSC)NS(=O)(=O)c1ccccc1F (stereo not given)	i	-0.65
57	CC1CN(Cc2nc3c(c(=O)n(C)c(=O)n3C)n2CC(=O)c2ccccc2)CC(C)O1 (stereo not given)	i	3.4
58	CCOc1ccc(S(=O)(=O)N2CCC(C(=O)N3CCCCCC3)CC2)cc1Cl	i	0.77
59	Cc1ccc(-n2ncc3c2CC(C)(C)CC3NC(=O)CCc2c(C)noc2C)cc1 (stereo not given)	i	-0.56
60	Cc1ccc(NC(=O)CSc2nnc(C)c(=O)n2N)cc1Cl	i	-0.49

# (continued)
no.	SMILES	KCNQ2 inh	KCNQ2 inh baseline
61	Cc1cc(Cl)ccc1OCCCC(=O)Nc1ccc(S(=O)(=O)Nc2ncccn2)cc1	i	0.72
62	O=C(OCC(=O)C12CC3CC(CC(C3)C1)C2)c1cccnc1Cl	i	-1.2
63	CSc1ccc(CN(C)C(=O)C(c2ccccc2)c2ccccc2)cc1	i	-0.03
64	O=C(O)Cc1ccc(C(=O)c2cccs2)s1	i	1.1
65	CC(=O)Oc1ccccc1/C=C/c1nc2ccccc2c(=O)o1	i	-0.2
66	COC(=O)Nc1nnc(CC(=O)Nc2ccccc2C)s1	i	-1.1
67	O=C1c2ccccc2S(=O)(=O)c2cc(C(=O)N3CCN(C(=O)c4ccccc4)CC3)ccc21	i	0.79
68	COc1cccc(C2c3[nH]c4ccccc4c3C[C@H]3C(=O)N(c4ccccc4C(=O)N4CCC(C(=O)O)CC4)C(=O)N23)c1 (stereo not given in full)	i	3.5
69	CCc1noc(C)c1C(=O)Nc1nc(-c2ccc(OC)cc2)cs1	i	1.6
70	O=C(CCCc1c[nH]c2ccccc12)NCCc1c[nH]c2ccccc12	i	-2.2
71	COc1ccc(N2C(=O)CC(N(CCc3ccc(S(N)(=O)=O)cc3)C(=S)Nc3ccccc3)C2=O)cc1 (stereo not given)	i	-2
72	CN(Cc1cccc(Cl)c1Cl)c1ccc(S(=O)(=O)N2CCCCC2)cc1[N+](=O)[O-]	i	-1.1
73	CCOc1ccccc1C(=O)Nc1c[nH]c(=O)[nH]c1=O	i	3.5
74	O=C(NCc1ccccn1)C1CCC(CNS(=O)(=O)c2cccc3nsnc23)CC1 (stereo not given)	i	0.57
75	CCCc1ccc(Oc2cn[nH]c2-c2ccc(O)cc2O)cc1	i	-2.4
76	C=CCNC(=O)c1ccc(S(=O)(=O)CC)c(Cl)c1Cl	i	1.6
77	O=C(Nn1c(-c2ccc(Br)cc2)nc2ccccc2c1=O)c1ccc([N+](=O)[O-])cc1	i	0.01
78	CC(=O)OC(COc1cccc(C)c1)Cn1cnc2ccccc21 (stereo not given)	i	-0.94
79	Cc1c(Br)cc(-c2nnco2)cc1Br	i	1.5
80	O=C(Cc1ccc(Br)cc1)NCCCn1ccnc1	i	0.19
81	Cc1ccc(CNC(=O)C2CCCN(c3ncnc4c3nc3n4CCCCC3)C2)cc1 (stereo not given)	i	0.54
82	Cc1c(O)nc(SCC(=O)Nc2nccs2)n(-c2ccccc2F)c1=O	i	-0.02
83	Cc1ccc(C2C(C#N)=C(N)Oc3cc4c(cc32)OCO4)cc1 (stereo not given)	i	-0.89
84	COc1ccc(-c2nc3ccccc3c(=O)n2CCCn2ccnc2)cc1	i	5.7
85	Cc1ccc(CNC(=O)CSc2nc3ccccc3[nH]2)cc1	i	-0.01
86	CCOC(=O)c1c(C)c(C(=O)N(C)C2CCCCC2)c(C)n1C	i	-0.41
87	COc1ccc(/C=C/C(=O)c2ccc(NC3=NCCCS3)cc2)cc1OC	i	-3.2
88	COc1ccc(NS(=O)(=O)c2cccc(NC(=O)NCCCl)c2)cc1	i	-0.77
89	CC1NC(=S)N(C2CCCCC2)C1=O (stereo not given)	i	-0.73
90	Cc1cc(NC(=O)CSc2nnc(-c3ccoc3C)o2)no1	i	-3
91	c1ccc(OCc2ccc(CCCN3CCOCC3)cc2)cc1	i	-0.37
92	CCOc1ccc(NC(=S)N=Nc2c(O)[nH]c3ccccc23)cc1	i	1.2
93	O=C(c1ccc(Cl)s1)N1CCN(c2ccccc2)CC1	i	-0.08
94	Cc1occc(=O)c1OC(=O)Nc1ccccc1	i	-0.74
95	CC1=C(N2CCCCC2)CCC1=O	i	0.01
96	COc1ccc(C2=NOC(C(=O)N(C)Cc3ccccc3)C2)cc1 (stereo not given)	i	2.9
97	O=C(N/N=C/c1c[nH]c2ccccc12)c1ccn(Cc2ccc(Cl)cc2Cl)n1	i	-0.69
98	CCC1(CC)Cc2ccccc2C(CC(=O)N2CCOCC2)=N1	i	-0.66
99	Cc1ccc([N+](=O)[O-])cc1NC(=O)c1ccccc1	i	-0.07
100	N#Cc1c(SCc2ccc(Cl)cc2)sc(C(=O)c2ccccc2)c1N	i	-0.03
101	O=C(Nc1ccccc1)Nc1nncs1	i	0.34
102	CCC12CN(C(=O)c3ccc([N+](=O)[O-])cc3)CC(CC)(CN(C(=O)c3ccc([N+](=O)[O-])cc3)C1)C2=O	i	0.13
103	C1CN(CC2CCN(c3nc4nonc4nc3N3CCSCC3)CC2)CCO1	i	-0.62
104	Cc1ncc(CSc2nccc(=O)[nH]2)c(CO)c1O	i	-0.24
105	C/C(CC(=O)N1CCN(C=O)CC1)=N\NC(=O)c1cccc([N+](=O)[O-])c1	i	-1.8
106	COc1ccc(OC)c(S(=O)(=O)NCC(c2ccco2)N2CCc3ccccc32)c1 (stereo not given)	i	-2.4
107	CN(Cc1c(F)cccc1Cl)C(=O)c1cccc(S(=O)(=O)NCc2ccccc2)c1	i	-0.05
108	CNC(=O)CSCc1c(F)cccc1Cl	i	0.33
109	COCC(C)NC(=S)Nc1ccccc1[N+](=O)[O-] (stereo not given)	i	-0.12
110	Cc1ccc(S(=O)(=O)Nc2ccccc2C(=O)N2CCCCCC2)cc1	i	1.2
111	Cc1cccc(OCc2nnc(SCC(=O)N3CCCC3)o2)c1	i	1.3
112	COc1ccc(NC(=O)COC(=O)c2ccccc2SCC(=O)N2CCCC2)cc1	i	0.07
113	O=C(NCc1nnc2c(C(F)(F)F)cc(Cl)cn12)c1ccco1	i	-0.61
114	CCN(C(=O)CCc1nc(-c2ccccc2F)no1)c1cc(OC)ccc1OC	i	-1.4
115	Cn1cc(/C=C2\SC(=O)NC2=S)c2ccccc21	i	7.2
116	CCN(CC)CCNS(=O)(=O)c1ccc(C(=O)NN)cc1	i	1.6
117	CC1=CC(c2ccc(Cl)cc2)n2nc(NC(=O)c3ccccc3)nc2N1 (stereo not given)	i	0.51
118	CCC1=C([N+](=O)[O-])C(c2ccc3c(c2)OCO3)NC(=O)N1 (stereo not given)	i	-0.74

# Of the compounds above, these contain two or more sulfur atoms.
no.	SMILES	KCNQ2 inh	KCNQ2 inh baseline
15	COc1ccc(OC)c(-c2nnc(NC(=O)C(C)Sc3nncn3C)s2)c1 (stereo not given)	i	-1.3
17	Cc1ccc(NC(=O)c2sccc2C)cc1S(=O)(=O)N(C)C	i	1.6
23	Nc1c(C(=O)Nc2nccs2)sc2nc(-c3cccs3)cc(C(F)(F)F)c12	i	1.8
41	O=C(NC(=S)Nc1cc(S(=O)(=O)N2CCOCC2)ccc1O)c1ccco1	i	1.4
42	Cc1nc(C)c(-c2csc(Nc3ccc(O)c(C(=O)O)c3)n2)s1	i	-0.15
54	O=C(NCc1ccco1)C1CCCN(S(=O)(=O)c2cccc3nsnc23)C1 (stereo not given)	i	-0.91
56	COc1ccccc1OCCNC(=O)C(CCSC)NS(=O)(=O)c1ccccc1F (stereo not given)	i	-0.65
64	O=C(O)Cc1ccc(C(=O)c2cccs2)s1	i	1.1
71	COc1ccc(N2C(=O)CC(N(CCc3ccc(S(N)(=O)=O)cc3)C(=S)Nc3ccccc3)C2=O)cc1 (stereo not given)	i	-2
74	O=C(NCc1ccccn1)C1CCC(CNS(=O)(=O)c2cccc3nsnc23)CC1 (stereo not given)	i	0.57
82	Cc1c(O)nc(SCC(=O)Nc2nccs2)n(-c2ccccc2F)c1=O	i	-0.02
100	N#Cc1c(SCc2ccc(Cl)cc2)sc(C(=O)c2ccccc2)c1N	i	-0.03
115	Cn1cc(/C=C2\SC(=O)NC2=S)c2ccccc21	i	7.2

# Some of the compounds tested; the hit share may differ from the screen's.
